# MLL AF4-AF9 inh – inhibitors of human MLL-AF4/AF9 interaction; P42568; AlphaScreen, biotin-AF4 peptide binding to FLAG-AF9; inhibition, % at 10 µM; hit rate 0.47% among 350,000; AID 651704;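 active = every replicate reaching a set inhibition limit, whatever the replicate mean, cut at about 25% in these data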;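 also: 0% = plate neutral control median and 100% = total signal loss; the record names both 10 and 1 µM as test concentration; the first replicate is given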
# Target sequence (P42568 whole entry, looked up): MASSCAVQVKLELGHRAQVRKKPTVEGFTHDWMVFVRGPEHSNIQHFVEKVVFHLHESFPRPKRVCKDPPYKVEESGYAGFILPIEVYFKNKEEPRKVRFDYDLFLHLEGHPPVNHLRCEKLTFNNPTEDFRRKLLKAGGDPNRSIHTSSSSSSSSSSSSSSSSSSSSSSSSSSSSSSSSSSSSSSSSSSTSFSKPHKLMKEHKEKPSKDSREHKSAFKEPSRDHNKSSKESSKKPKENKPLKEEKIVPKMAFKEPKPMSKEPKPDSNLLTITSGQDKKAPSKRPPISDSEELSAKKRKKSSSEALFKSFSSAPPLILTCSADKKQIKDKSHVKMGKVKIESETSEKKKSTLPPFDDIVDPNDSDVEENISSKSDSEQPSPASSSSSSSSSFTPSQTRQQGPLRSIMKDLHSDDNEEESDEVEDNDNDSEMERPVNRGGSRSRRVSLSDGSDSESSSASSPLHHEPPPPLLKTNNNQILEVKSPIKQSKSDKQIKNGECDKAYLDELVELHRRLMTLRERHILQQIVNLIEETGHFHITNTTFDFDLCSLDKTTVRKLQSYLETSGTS
# Ecoli rRNA inh – inhibits bacterial ribosomal RNA function over humanized ribosomes. E. coli WT GFP vs humanized-ribosome RFP mutants, fluorescence, 24 h; stronger effect = lower value; DMSO median 0, no signal -100. GFP signal change (wild-type ribosome), % (no concentration beside the values). hit rate 1.6% among 350,000;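 active = significant combined selectivity score with lowered wild-type GFP, culture density cut under 30%, mutant RFP and density less affected; inactive = any of these conditions unmet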; also: one replicate is shown; some compounds called inactive have numbers as strong as hits
# Ecoli rRNA inh OD600 – also measured in Ecoli rRNA inh; calls as there; OD600 change, %; measured here: OD600 growth;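 optical density of the mix in the first replicate; 0 = DMSO median and -100 = no signal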
# Ecoli rRNA inh RFP – second read-out of Ecoli rRNA inh, no call of its own (marks repeat the call); RFP signal change, %; measured here: RFP humanized mutant strains;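 first replicate; 0 = DMSO median and -100 = no signal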
# Starred values were filed as active, the others as inactive.
MLL AF4-AF9 inh	Ecoli rRNA inh	Ecoli rRNA inh OD600	Ecoli rRNA inh RFP	compound
-4.5	0.6	0.4	-3.1	COC(=O)c1ccccc1OCc1cc(=O)oc2ccc(C)cc12
5.7	3.5	5.3	26.7	COC(=O)[C@@]1(Cc2ccc(F)cc2)[C@H]2C(CC(=O)C(=O)N3CCCC3)C(=O)C[C@H]2CN1C(=O)c1ccccc1 (some centres not stated)
4.7	-0.5	-8.8	-1.2	CC(C)NC(=O)N(C)C[C@H]1Oc2ccc(NC(=O)Nc3ccc4c(c3)OCO4)cc2CC(=O)N([C@@H](C)CO)C[C@@H]1C
-1.4	2.0	7.3	-3.9	O=C(NC1CCN(Cc2ccccc2)CC1)c1cc(S(=O)(=O)N2CCOCC2)ccc1Cl
2.4	-16.5	-51.2	29.8	O=C(C[C@@H]1C[C@H]2c3cc(NS(=O)(=O)c4ccc(F)cc4)ccc3O[C@H]2[C@H](CO)O1)NCc1cc(F)ccc1F
2.4	-0.1	1.2	-1.8	CNC(=O)C[C@H]1C(=O)N(C2CCCCC2)C[C@@H]1c1ccc(Br)cc1
-4.2	-3.5	7.7	-3.9	O=C(c1ccccc1F)N1CC(=O)N2[C@@H](CO)[C@H](c3ccc(-c4ccc(F)cc4)cc3)[C@@H]2C1
-1.2	1.4	-1.2	-1.7	CC(C)NC(=O)N(C)C[C@@H]1Oc2ccc(NC(=O)CCCCCC(=O)Nc3ccccc3N)cc2C(=O)N([C@@H](C)CO)C[C@@H]1C
-0.2	2.2	2.4	-1.8	CCCC(=O)Nc1ccc2c(c1)OC[C@@H](C)N(C(=O)c1cnccn1)C[C@@H](C)[C@@H](OC)CN(C)C2=O
0.2	2.3	6.1	-2.8	C[C@H]1CN([C@@H](C)CO)C(=O)c2cc(NS(=O)(=O)c3cn(C)cn3)ccc2O[C@H]1CN(C)Cc1ccc2c(c1)OCO2
5.8	2.9	-1.0	-2.0	C[C@@H]1CN([C@@H](C)CO)C(=O)c2cc(NC(=O)Nc3ccccc3)ccc2O[C@@H](C)CCCCO[C@@H]1CN(C)C(=O)Nc1ccc2c(c1)OCO2
10.5	-7.6	-27.2	14.2	C[C@@H]1CN([C@@H](C)CO)S(=O)(=O)c2ccc(C#CCN(C)C)cc2O[C@H]1CN(C)Cc1ccc2c(c1)OCO2
1.1	-0.5	-26.0	32.2	O=C(C[C@H]1CC[C@H]2[C@@H](COC[C@@H](O)CN2CCC(F)(F)F)O1)N1CCC(Cc2ccccc2)CC1
12.6	-49.6	-73.9	-7.6	CC(C)C#Cc1ccc([C@H]2[C@H](CO)N3CCCCN(C(=O)Nc4ccccc4)C[C@@H]23)cc1
-1.6	3.3	4.2	-0.6	Cc1noc(C)c1S(=O)(=O)Nc1cccc2c1O[C@H](CN(C)C(=O)Nc1ccc(F)cc1)[C@H](C)CN([C@@H](C)CO)C2=O
-2.0	26.1	19.7	-0.2	CC(C)CC(=O)[C@@H](O)Cc1ccc(O)cc1
-3.3	0.2	6.7	0.5	C[C@@H]1CCCCO[C@@H](CN(C)Cc2ccncc2)[C@H](C)CN([C@H](C)CO)C(=O)c2cc(NC(=O)c3ccncc3)ccc2O1
0.6	1.8	-1.0	0.8	COc1ccc(NC(=O)N(C)C[C@@H]2Oc3ccc(NC(=O)Nc4ccc(F)cc4)cc3CC(=O)N([C@H](C)CO)C[C@@H]2C)cc1
0.6	-0.1	-3.2	-1.2	COc1ccc(S(=O)(=O)N(C)C[C@H]2OCCCC[C@H](C)Oc3ccc(NC(=O)CCCN(C)C)cc3C(=O)N([C@@H](C)CO)C[C@H]2C)cc1
-6.4	2.7	-0.3	0.1	COc1ccc(CN(C)C[C@@H]2Oc3ccc(NS(=O)(=O)c4ccc(C)cc4)cc3C(=O)N([C@H](C)CO)C[C@H]2C)cc1
7.5	7.4	-1.1	2.6	COc1cccc(NC(=O)N2CC(=O)N3[C@H](CO)[C@H](c4ccc(C#CC5CCCCC5)cc4)[C@H]3C2)c1
-2.6	-16.5	-46.0	28.6	O=C(Nc1ccc(C(F)(F)F)cc1)Nc1ccc2c(c1)[C@H]1C[C@H](CC(=O)N3CCc4ccccc4C3)O[C@H](CO)[C@H]1O2
19.0	3.4	-0.2	-1.0	C[C@@H]1CN([C@@H](C)CO)C(=O)c2cc(NC(=O)Nc3ccc4c(c3)OCO4)ccc2O[C@@H](C)CCCCO[C@H]1CN(C)Cc1ccc2c(c1)OCO2
1.5	6.6	-9.9	1.7	CC(C)CC#Cc1ccc([C@@H]2[C@@H](CO)N3C(=O)CN(C(=O)c4ccccn4)C[C@H]23)cc1

# An excerpt of the results above, as a working copy:
MLL AF4-AF9 inh	Ecoli rRNA inh	Ecoli rRNA inh OD600	Ecoli rRNA inh RFP	compound
1.1	-0.5	-26.0	32.2	O=C(C[C@H]1CC[C@H]2[C@@H](COC[C@@H](O)CN2CCC(F)(F)F)O1)N1CCC(Cc2ccccc2)CC1
12.6	-49.6	-73.9	-7.6	CC(C)C#Cc1ccc([C@H]2[C@H](CO)N3CCCCN(C(=O)Nc4ccccc4)C[C@@H]23)cc1
-1.6	3.3	4.2	-0.6	Cc1noc(C)c1S(=O)(=O)Nc1cccc2c1O[C@H](CN(C)C(=O)Nc1ccc(F)cc1)[C@H](C)CN([C@@H](C)CO)C2=O
-2.0	26.1	19.7	-0.2	CC(C)CC(=O)[C@@H](O)Cc1ccc(O)cc1
-3.3	0.2	6.7	0.5	C[C@@H]1CCCCO[C@@H](CN(C)Cc2ccncc2)[C@H](C)CN([C@H](C)CO)C(=O)c2cc(NC(=O)c3ccncc3)ccc2O1
0.6	1.8	-1.0	0.8	COc1ccc(NC(=O)N(C)C[C@@H]2Oc3ccc(NC(=O)Nc4ccc(F)cc4)cc3CC(=O)N([C@H](C)CO)C[C@@H]2C)cc1
0.6	-0.1	-3.2	-1.2	COc1ccc(S(=O)(=O)N(C)C[C@H]2OCCCC[C@H](C)Oc3ccc(NC(=O)CCCN(C)C)cc3C(=O)N([C@@H](C)CO)C[C@H]2C)cc1
-6.4	2.7	-0.3	0.1	COc1ccc(CN(C)C[C@@H]2Oc3ccc(NS(=O)(=O)c4ccc(C)cc4)cc3C(=O)N([C@H](C)CO)C[C@H]2C)cc1

# (next part)
MLL AF4-AF9 inh	Ecoli rRNA inh	Ecoli rRNA inh OD600	Ecoli rRNA inh RFP	compound
-0.3	1.9	13.0	0.7	C[C@H]1CN([C@@H](C)CO)C(=O)c2cc(NC(=O)Nc3ccc(C(F)(F)F)cc3)ccc2O[C@@H]1CN(C)C
8.6	-0.2	-7.1	1.7	COc1ccc2c3c(n(C)c2c1)[C@@H](CO)N(Cc1ccncc1)CC31CCN(C(=O)C2CCCCC2)CC1
-1.5	4.1	0.1	-2.0	C[C@@H]1CN([C@H](C)CO)C(=O)c2cc(-c3ccc(C#N)cc3)cnc2O[C@H]1CN(C)CC1CCCC1
-1.7	2.9	-4.2	0.0	C[C@H](O)C#Cc1cnc2c(c1)C(=O)N([C@H](C)CO)C[C@@H](C)[C@@H](CN(C)C(=O)c1ccncc1)O2
-6.5	1.1	1.8	-2.5	CC(C)NC(=O)Nc1ccc2c(c1)C(=O)N([C@@H](C)CO)C[C@@H](C)[C@H](CN(C)Cc1ccc(C(=O)O)cc1)OCCCC[C@@H](C)O2
-1.7	9.8	9.1	0.9	COC(=O)C[C@H]1C[C@H]2c3cc(NS(C)(=O)=O)ccc3O[C@H]2[C@H](CO)O1
-1.0	1.9	11.2	0.3	O=C(C[C@H]1C=C[C@H](NC(=O)C2CCC2)[C@@H](CO)O1)NC1CCC1
-1.0	1.8	1.4	-5.7	O=C(C1CCCCC1)N1CC(=O)N2[C@@H](CO)[C@@H](c3ccc(-c4cccnc4)cc3)[C@@H]2C1
-2.1	1.7	3.6	-3.2	C[C@H](O)C#Cc1ccc2c(c1)O[C@H](CN(C)C(=O)CN(C)C)[C@H](C)CN([C@@H](C)CO)S2(=O)=O
-0.3	1.8	7.8	-0.4	O=C(C[C@H]1C[C@H]2c3cc(NC(=O)C4CCC4)ccc3O[C@H]2[C@H](CO)O1)NCc1ccncc1
-2.4	0.7	4.1	-1.3	C[C@@H]1CN([C@H](C)CO)C(=O)c2ccccc2-c2ccccc2CO[C@@H]1CN(C)S(=O)(=O)c1cn(C)cn1
-2.6	4.6	9.6	0.8	C[C@H]1CN([C@@H](C)CO)C(=O)c2cc(NS(=O)(=O)c3cn(C)cn3)ccc2O[C@H]1CN(C)C(=O)NC1CCCCC1
-5.3	-1.2	6.2	-5.2	CC(=O)N1CCN(Cc2cc(=O)oc3cc(C)ccc23)CC1
-1.0	4.7	3.3	-0.6	O=C(Cc1ccccn1)N1CC2(C1)[C@H](c1ccccc1)[C@@H](CO)N2C(=O)c1cccnc1
-0.7	-56.9	-78.8	-12.4	O=C(Nc1ccc(Cl)cc1)N1C[C@H]2[C@@H](c3ccccc31)[C@@H](CO)N2CC1CCCC1
-1.3	-0.4	1.6	1.5	O=C(C[C@@H]1C=C[C@H](NC(=O)c2ccc3c(c2)OCO3)[C@H](CO)O1)NCc1ccc(Cl)cc1
9.1	-11.6	-33.3	6.1	COc1ccc(C(O)c2ncc(-c3cccc4ccccc34)[nH]2)cc1F (configuration not stated)
1.5	0.7	2.1	-2.4	C[C@@H]1CN([C@H](C)CO)C(=O)c2cc(NC(=O)Nc3ccc(C(F)(F)F)cc3)ccc2O[C@@H](C)CCCCO[C@H]1CN(C)Cc1ccc(C(=O)O)cc1
-0.8	0.2	-8.6	-3.5	O=C(C[C@H]1CC[C@H]2[C@@H](COC[C@@H](O)CN2Cc2nccs2)O1)NCc1ccc(Oc2ccccc2)cc1
-1.2	1.7	7.7	-6.4	CCCC(=O)Nc1ccc2c(c1)OC[C@@H](C)N(CC1CCCC1)C[C@H](C)[C@H](OC)CN(C)C2=O
4.1	3.8	7.3	-0.5	O=C(c1cccnc1)N1CC2(C1)[C@H](c1ccccc1)[C@@H](CO)N2Cc1ccccc1
-1.3	-3.5	-16.2	2.5	COc1ccc(S(=O)(=O)N2CCC3(CC2)CN(Cc2ccncc2)[C@H](CO)c2[nH]c4cc(OC)ccc4c23)cc1
1.7	0.2	-2.1	0.9	C[C@H]1CN([C@@H](C)CO)C(=O)c2cc(C#CC3CCCCC3)cnc2O[C@@H]1CN(C)S(=O)(=O)c1ccccc1
-2.1	0.6	-1.0	-0.2	CO[C@H]1CN(C)C(=O)c2ccc(NC(=O)C3CCOCC3)cc2OC[C@@H](C)NC[C@H]1C
-1.2	-0.8	-1.9	-1.8	CC(=O)N1CC2(C1)[C@H](c1ccc(-c3ccc(C#N)cc3)cc1)[C@@H](CO)N2C(C)=O
-1.4	6.4	11.8	-1.9	CC(C)NC(=O)N1C[C@@H]2[C@H](c3ccccc31)[C@@H](CO)N2Cc1ccccn1
-1.5	0.8	-6.0	3.0	CCNC(=O)[C@@H]1[C@@H](CO)[C@@H]2Cn3c(ccc(C4=CCCCC4)c3=O)[C@H]1N2Cc1ccncc1
-3.7	-2.0	-5.9	-6.0	CCOC(=O)N1CCN(C(=O)CSCC(=O)N=c2sc3cc(OC)ccc3n2C)CC1
-0.5	-3.0	-4.7	-1.4	COCC(=O)N(C)C[C@H]1Oc2cc(-c3ccccc3)ccc2S(=O)(=O)N([C@@H](C)CO)C[C@@H]1C
0.8	-9.3	-12.4	0.9	C[C@H]1CN([C@@H](C)CO)S(=O)(=O)c2ccc(-c3cccc(C#N)c3)cc2O[C@H]1CN(C)C(=O)c1ccc(F)cc1
-3.5	5.0	6.7	0.9	C[C@@H]1CN([C@H](C)CO)C(=O)c2cccc(NC(=O)C3CC3)c2O[C@@H]1CN(C)CC1CCCCC1
0.0	9.2	9.2	-2.9	COCC#Cc1cnc2c(c1)C(=O)N([C@@H](C)CO)C[C@@H](C)[C@H](CN(C)C(=O)C1CC1)O2
-0.3	-2.7	0.8	0.5	COc1cc(CN2CC3(CN(C(=O)Nc4cccc(F)c4)C3)c3c(n(C)c4cc(OC)ccc34)[C@H]2CO)cc(OC)c1
-1.0	-3.2	-6.4	-0.1	C[C@@H]1CN([C@H](C)CO)C(=O)c2cc(NS(=O)(=O)c3ccc(F)cc3)ccc2O[C@H]1CN(C)S(=O)(=O)c1ccc(F)cc1
-0.7	5.5	10.9	0.8	CC(C)CC#Cc1ccc2c(c1)O[C@@H](CN(C)Cc1ccccc1F)[C@H](C)CN([C@@H](C)CO)S2(=O)=O
-8.0	4.8	13.0	-0.4	CC1(Cc2ccc(Cl)cc2)C(=O)Nc2ccc(-c3ccc(F)c(Cl)c3)cc21 (configuration not stated)
4.0	-0.5	-21.0	11.6	C[C@H](CO)N1C[C@H](C)[C@H](CN(C)Cc2ccccc2)Oc2ccc(NC(=O)Nc3ccccc3)cc2CC1=O
-1.1	-1.4	-17.5	13.9	C[C@@H]1CN([C@H](C)CO)C(=O)c2cc(C#Cc3ccccc3)cnc2O[C@H]1CN(C)C(=O)c1ccccc1F
-2.1	-18.4	-19.7	-9.9	COC(=O)c1ccc2nc(-c3ccccc3)c(Cc3ccsc3)n2c1
-1.1	2.6	3.9	1.0	COc1cccc(-c2cn(CC[C@@H]3CC[C@H](NC(C)=O)[C@@H](CO)O3)nn2)c1
2.1	1.8	0.6	-1.9	COc1ccc(S(=O)(=O)N(C)C[C@@H]2Oc3c(NC(=O)Nc4ccc(C(F)(F)F)cc4)cccc3C(=O)N([C@@H](C)CO)C[C@H]2C)cc1
1.9	-1.1	1.1	-1.4	C[C@H](CO)N1C[C@H](C)[C@@H](CN(C)S(=O)(=O)c2cn(C)cn2)Oc2ccc(NS(=O)(=O)c3ccccc3)cc2CC1=O

# An excerpt; rates above refer to the full screens.
